hNpr1 antagonist = antagonists of human natriuretic peptide receptor Npr1; P16066; HEK293 hNpr1 GloSensor cGMP, ANP-stimulated luminescence; Potency, µM (highest dose often 46.3 µM), inactives show at the highest dose activity change, negative = inhibition, hits mostly inhibitors; 1.6% of 76,000 active; AID 1347048; active = well fitted inhibition curve with a large enough effect; inconclusive = small, poorly fitted or top-dose-only effect; inactive = no such curve, though single readings can be large or run the other way;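 further: nearly all actives have a fitted effect of over 60% in size; nearly all hits also lower the signal before the agonist is added; a reference antagonist and vehicle were the controls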
Target sequence (P16066 whole entry, looked up): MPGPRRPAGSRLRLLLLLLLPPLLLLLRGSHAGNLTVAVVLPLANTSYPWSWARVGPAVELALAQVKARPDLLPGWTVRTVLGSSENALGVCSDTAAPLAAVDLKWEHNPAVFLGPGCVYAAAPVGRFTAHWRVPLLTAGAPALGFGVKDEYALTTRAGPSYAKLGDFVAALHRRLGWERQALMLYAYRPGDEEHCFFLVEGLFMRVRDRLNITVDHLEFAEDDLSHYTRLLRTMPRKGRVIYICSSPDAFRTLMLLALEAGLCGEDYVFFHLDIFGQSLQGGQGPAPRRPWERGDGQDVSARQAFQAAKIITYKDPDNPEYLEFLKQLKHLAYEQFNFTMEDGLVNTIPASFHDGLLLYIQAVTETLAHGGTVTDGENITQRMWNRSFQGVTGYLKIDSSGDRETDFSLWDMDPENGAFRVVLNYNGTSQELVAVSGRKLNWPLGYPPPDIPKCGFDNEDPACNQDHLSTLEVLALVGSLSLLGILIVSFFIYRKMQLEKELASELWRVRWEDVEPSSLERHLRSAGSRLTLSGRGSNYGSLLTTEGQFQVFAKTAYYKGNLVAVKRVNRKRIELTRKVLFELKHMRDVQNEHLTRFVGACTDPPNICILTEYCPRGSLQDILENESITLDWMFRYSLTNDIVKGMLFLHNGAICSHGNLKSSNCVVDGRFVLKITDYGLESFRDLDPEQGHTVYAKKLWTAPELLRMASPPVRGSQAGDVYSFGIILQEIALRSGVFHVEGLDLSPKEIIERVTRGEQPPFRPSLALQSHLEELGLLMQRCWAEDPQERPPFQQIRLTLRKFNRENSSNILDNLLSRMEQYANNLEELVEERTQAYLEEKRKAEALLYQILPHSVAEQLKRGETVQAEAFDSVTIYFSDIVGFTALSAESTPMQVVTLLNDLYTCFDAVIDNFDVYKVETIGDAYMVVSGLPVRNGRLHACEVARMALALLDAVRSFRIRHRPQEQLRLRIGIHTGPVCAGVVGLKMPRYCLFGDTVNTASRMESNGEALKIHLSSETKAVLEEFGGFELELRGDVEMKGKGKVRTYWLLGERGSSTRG
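Compound pre-incubated 30 min at room temperature on GloSensor-loaded HEK293 cells stably carrying hNpr1 and the pGS-40F cGMP biosensor. Stimulation uses hNppA at 0.1 nM final; luminescence is taken at baseline and 20 min post-agonist.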
* hit, by the source's call; ? = inconclusive; & = joins results of further samples; [ ] = dose if it differs, or a comment. On the % scale 0 is the no-effect control and ±100 the full control effect; potency means the concentration at half of the fitted maximal effect.

cpd	compound	hNpr1 antagonist
1	Cn1nccc1C(=O)N1CCCC(c2nc(C3CCOCC3)no2)C1 (stereo unspecified)	0%
2	O=C(Cc1cccc(F)c1)N1CC(Oc2ccc(-c3nc(-c4ccccc4)no3)cc2)C1	7.9µM*
3	COc1cccc(CCC(=O)N2CCCN(C)c3ccccc32)c1	-6%
4	Cc1nc(-c2cn(C3CCCN(C(=O)c4ccc(Cl)s4)C3)nn2)no1 (stereo unspecified)	2%
5	CN(C1CCOCC1)C1CCN(C(=O)c2ccnn2C)CC1	4%
6	CC(=O)Oc1c(-c2ccc(NC(=O)C3CC3)cc2)c(-c2ccccc2F)nn1-c1ccccc1	0%
7	CC1=C(C(=O)OC(C)C)C(c2ccccc2C)N2C(CC(=O)N3CCCC3)=CSC2=N1 (stereo unspecified)	-28%
8	Cc1cccc(CN2CCC3(CC2)CCN(Cc2cccc(O)c2)CC3CO)n1 (stereo unspecified)	6%
9	COc1ccc(NC2CCCN(C(=O)c3ccc(S(N)(=O)=O)cc3)C2)cc1 (stereo unspecified)	-1%
10	CCC1=C(C(=O)OC)C(c2ccccc2OC)N2C(CC(=O)NC(C)(C)C)=CSC2=N1 (stereo unspecified)	-18%
11	CCOCC1(C)COc2ccc(C(=O)NCc3ccc(F)cc3)cc2N1 (stereo unspecified)	-1%[70.6 µM]
12	CC(C)CCN1CCC2(CC1)OCCN(CCc1ccccc1)C2=O	5%[70.6 µM]
13	COCCN1C(=O)c2cccn2CC1CNS(=O)(=O)c1ccccc1 (stereo unspecified)	-9%
14	CCc1nc(-c2c3n(c(=O)n(CCCOc4ccc(F)cc4)c2=O)CCCC3)no1	1%
15	COC(=O)[C@@H]1Cc2ncn(C)c2CN1S(=O)(=O)c1ccc(F)cc1	5%[70.6 µM]
16	COc1ccc2[nH]c3c(c2c1)CCNC31CCN(S(=O)(=O)c2c(C)noc2C)CC1	4%
17	COc1ccc(C(=O)N2CCCN(c3cc(-c4ccc(C)c(C)c4)[nH]n3)CC2)cc1OC	-24%
18	CCN(CC)c1ccc(CNC(=O)c2cc3c(s2)CN(C(C)C)C3)cc1	-8%
19	COCC(=O)N1CCC(C2CCN(C(=O)c3ccncc3)CC2)C1 (stereo unspecified)	-3%
20	NC(=O)[C@@H]1CN(C(=O)c2ccc(F)cn2)C[C@H]1COc1ccccc1	1%
21	CCNC(=O)CCc1c(C)nn(-c2ccccc2)c1Oc1ccccc1	-13%
22	O=C(Nc1cc(F)cc(F)c1)C1CCN(C(=O)c2ncn3c2COC(c2ccc(F)cc2)C3)CC1 (stereo unspecified)	?
23	O=C(CN1CCOCC1)N1CCC2(CC1)CN(C1CCC1)CC2CO (stereo unspecified)	10%
24	O=C(CCC1CCN(S(=O)(=O)c2ccccc2)CC1)NCc1cccs1	-6%
25	O=C(Cn1ncc(N2CCNCC2)cc1=O)NCCc1ccc(F)cc1	2%
26	C[C@]1(CO)[C@H]2Cc3sc(NC(=O)c4ccco4)nc3[C@@H](CC(=O)NCc3ccccc3)[C@]2(C)CC[C@H]1O	-11%
27	O=C1CC(c2noc(-c3cc(F)ccc3Cl)n2)CN1c1ccc(F)cc1 (stereo unspecified)	6%
28	Cc1nc([C@H]2CCN(Cc3cc(F)c(F)cc3F)C[C@H]2NC(=O)C2CC2)n[nH]1	10%
29	O=C(c1ccco1)N1CCC[C@H](n2c(=O)n(CC3CC3)c3cccnc32)C1	-1%
30	O=C(N[C@H]1[C@H](O)[C@H](O)C[C@@H]1c1ccncc1)c1ccccn1	3%[70.6 µM]

Three records picked at random from those above:
cpd	compound	hNpr1 antagonist
6	CC(=O)Oc1c(-c2ccc(NC(=O)C3CC3)cc2)c(-c2ccccc2F)nn1-c1ccccc1	0%
2	O=C(Cc1cccc(F)c1)N1CC(Oc2ccc(-c3nc(-c4ccccc4)no3)cc2)C1	7.9µM*
5	CN(C1CCOCC1)C1CCN(C(=O)c2ccnn2C)CC1	4%

Reformatted: entries from further up.
16: COc1ccc2[nH]c3c(c2c1)CCNC31CCN(S(=O)(=O)c2c(C)noc2C)CC1
  hNpr1 antagonist: 4%

17: COc1ccc(C(=O)N2CCCN(c3cc(-c4ccc(C)c(C)c4)[nH]n3)CC2)cc1OC
  hNpr1 antagonist: -24%

18: CCN(CC)c1ccc(CNC(=O)c2cc3c(s2)CN(C(C)C)C3)cc1
  hNpr1 antagonist: -8%

19: COCC(=O)N1CCC(C2CCN(C(=O)c3ccncc3)CC2)C1 (stereo unspecified)
  hNpr1 antagonist: -3%

4 of the compounds above, field by field:
#24 O=C(CCC1CCN(S(=O)(=O)c2ccccc2)CC1)NCc1cccs1
  hNpr1 antagonist = -6%

#7 CC1=C(C(=O)OC(C)C)C(c2ccccc2C)N2C(CC(=O)N3CCCC3)=CSC2=N1 (stereo unspecified)
  hNpr1 antagonist = -28%

#13 COCCN1C(=O)c2cccn2CC1CNS(=O)(=O)c1ccccc1 (stereo unspecified)
  hNpr1 antagonist = -9%

#20 NC(=O)[C@@H]1CN(C(=O)c2ccc(F)cn2)C[C@H]1COc1ccccc1
  hNpr1 antagonist = 1%

Next section
cpd	compound	hNpr1 antagonist
31	Cc1ccc(C(=O)N2CCC3(CC2)CN[S+](=O)([O-])c2ccccc2N3)cc1	-16%
32	O=C(c1cnco1)N1CC(F)(F)C[C@H]1c1nc(-c2ccccc2)no1	-15%
33	N#Cc1cccc(C(=O)N2CCC3(CC2)NC(=O)N(Cc2cccc(Cl)c2)C3=O)c1	-25%
34	CSCc1ccc(C(=O)N2CCCC(c3nccn3CC3CC3)C2)o1 (stereo unspecified)	1%
35	COc1ccc(C(=O)N2CCC[C@H]2c2nc(-c3ccc(OC)c(OC)c3)no2)c(OC)c1	4%
36	O=C(c1cccc(OC(F)(F)F)c1)N1CC2CC(C1)[C@H]1CCCC(=O)N1C2 (stereo partly specified)	5%
37	O=C(NCc1cccs1)C1CCc2sc(C(=O)N3CCCCCC3)cc2C1 (stereo unspecified)	-21%
38	O=C(c1ccncc1)N1CCC(Cc2noc(C3CC3)n2)C1 (stereo unspecified)	-1%
39	COc1ccccc1C(=O)N1CCC(OC2CCN(S(C)(=O)=O)CC2)CC1	2%
40	CCN(Cc1ccccc1)C(=O)c1cc2c(N3CCCC3)nc(C)cn2n1	5%
41	O=C(C1CC1)N1CCC2(CC1)CC(=O)N(c1ccccc1)c1ccccc1O2	0%
42	O=C(NCC(F)(F)F)C1CN(c2cccc(Cl)c2)C(=O)N1 (stereo unspecified)	13%&33%[70.6 µM]
43	COCCN1C(=O)[C@@H]2C[C@@H](CN2C(=O)c2ccc(Cl)cc2)Oc2ccccc21	-13%[70.6 µM]
44	Cc1ccc(C2Cn3nnc(C(=O)N4CCC(C(=O)NCC5CCCO5)CC4)c3CO2)cc1 (stereo unspecified)	-3%
45	CCc1nnc([C@@H]2CC(F)(F)CN2C(=O)c2cnco2)o1	8%
46	O=C(NCC1Cn2cccc2CN1Cc1ccccc1)NC1CCCCC1 (stereo unspecified)	0%
47	COc1ncccc1Nc1cnc2ccc(N(C)C)nn12	-8%[70.6 µM]
48	COC[C@@H]1CN(C(=O)c2cccn2C)C[C@H]1c1ccccn1	-2%
49	COCC1CN(C)CC12CCN(C(=O)Cn1c(=O)oc3ccccc31)CC2 (stereo unspecified)	-2%
50	c1ccc(CN[C@H]2CO[C@H]3[C@@H]2OC[C@@H]3n2cc(CC3CCCCC3)nn2)cc1	-20%[70.6 µM]
51	Fc1ccc(CN2CCOC[C@H]2c2ncc(-c3ccc(F)cc3)[nH]2)cc1	?
52	COCCNC(=O)c1ccc2c(c1)N(C)C(CC(=O)N1CCNC(=O)C1)CO2 (stereo unspecified)	5%
53	O=C(Cn1ccn2nc(-c3ccccc3)c(CO)c2c1=O)NCc1ccccc1Cl	-1%
54	COCc1cc(NCC(O)COc2ccc(Cl)c(C)c2)ncn1 (stereo unspecified)	?
55	COc1ccc(CC(=O)Nc2ccc([C@H]3OCC(=O)N(Cc4scnc4C)[C@@H]3CO)cc2)cc1	-1%
56	COCCN1CCCCC(CC(=O)Nc2ccc(C)cc2)C1=O (stereo unspecified)	-10%
57	O=C(NC1CCN(c2cc(-c3ccc(Cl)cc3)[nH]n2)CC1)c1cccnc1	-8%
58	O=c1c2c(n(Cc3ccccc3)n1-c1ccccc1)CN(Cc1ccn[nH]1)CC2	0%[70.6 µM]
59	Cc1nc(C)c(C(=O)N2CCc3n[nH]c(=O)n3CC2)s1	0%
60	COC[C@@H]1CN(C(=O)c2cccc(Cl)c2)C[C@H]1C(N)=O	-13%

Copied from the list:
For hNpr1 antagonist, COCCN1C(=O)[C@@H]2C[C@@H](CN2C(=O)c2ccc(Cl)cc2)Oc2ccccc21 is listed with -13%[70.6 µM]
For hNpr1 antagonist, CCN(CC)c1ccc(CNC(=O)c2cc3c(s2)CN(C(C)C)C3)cc1 is listed with -8%

Continuation:
| # | SMILES | hNpr1 antagonist |
| --- | --- | --- |
| 61 | C[C@@]1(O)CCN(Cc2cc(F)c(F)cc2F)C[C@H]1N1CCCC1 | -5% |
| 62 | Oc1ccc(-c2nc(C3CC3)nc3c2CN(Cc2ccccc2C(F)(F)F)CC3)cc1 | 7%&-11% |
| 63 | Cc1cccc(S(=O)(=O)N2CC(C(=O)NC3CCCCC3)C3(CCOCC3)C2)c1 (stereo unspecified) | 0% |
| 64 | COc1cc(NC(=O)O[C@@H]2CC[C@]3(C)C(CC[C@@H](O)[C@H]3CC(=O)N3CCC[C@H]3CO)[C@]2(C)CO)cc(OC)c1 (stereo partly specified) | 4% |
| 65 | Cc1ccsc1CN1CCOc2cc([S+](=O)([O-])N(C)C)ccc2C1 | ? |
| 66 | Cn1c(CCC(=O)NC2CCOC2)nc2cc(S(=O)(=O)N3CCCC3)ccc21 (stereo unspecified) | 10% |
| 67 | Cn1nccc1OCc1cn2c(=O)n(C)cc(-c3ccccc3F)c2n1 | -13%[70.6 µM] |
| 68 | Cn1cc2c3c(cccc31)CN(C(=O)c1ccc(F)c(Cl)c1)CC2 | -4% |
| 69 | CCOC(=O)CCNC(=O)NCC(=O)N1CCCCCNC(=O)CC1c1ccccc1 (stereo unspecified) | -2% |
| 70 | O=C1CCN(C(=O)[C@@H](Cc2ccccc2)NC(=O)C2CCCCC2)CCOCCN1 | -4% |
| 71 | O=C(Cn1cccc1-c1nc(-c2ccccc2)no1)NCc1ccc(F)cc1 | 3% |
| 72 | Cn1nccc1C(=O)N1CCCC1C(=O)Nc1cccc(-n2cccn2)c1 (stereo unspecified) | 5% |

Additional compounds.
| # | SMILES | hNpr1 antagonist |
| --- | --- | --- |
| 73 | COCCNC(=O)[C@H]1C[C@H](Oc2cccnc2)CN1C(=O)NC(C)C | 0% |
| 74 | COc1ccc(-c2noc(-c3nnn4c3COC(c3ccc(F)cc3)C4)n2)c(OC)c1 (stereo unspecified) | -1% |
| 75 | COCCN1CC(CO)C2(CCN(C(=O)CC3CCN(C(C)=O)CC3)CC2)C1 (stereo unspecified) | 2% |
| 76 | N#Cc1cccnc1N1CCN(Cc2cn(-c3ccccc3)nn2)CC1 | -1% |

Assay outcomes from PubChem BioAssay.

An excerpt (hit frequency here may not be typical).
